ClpP mod: qHTS Assay for Activators of ClpP. ATP-dependent Clp protease proteolytic subunit (Bacillus subtilis (strain 168)), P80244. purified B. subtilis ClpP, FRET peptide cleavage, 20 min. Potency, µM (series often up to 57.5 µM), for the others: at the highest dose activity change, negative = active. 340,000 tested, 1.9% active. AID 651965, 2013; active = well fitted falling curve with a large enough effect; inconclusive = small, poorly fitted or top-dose-only effect; inactive = no such curve, though single readings can be large or run the other way; note: the source files actives as falling curves though it sought activators and does not explain the sign; nearly all actives have a fitted effect of over 65% in size; many hits overshoot -100%
Target sequence (P80244 whole entry, looked up): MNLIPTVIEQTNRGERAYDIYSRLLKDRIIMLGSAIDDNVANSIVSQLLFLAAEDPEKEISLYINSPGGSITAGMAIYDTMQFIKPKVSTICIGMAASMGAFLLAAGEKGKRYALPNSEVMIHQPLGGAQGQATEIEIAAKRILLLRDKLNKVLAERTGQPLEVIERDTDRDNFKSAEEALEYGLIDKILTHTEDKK
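FRET quenching reversal measured ClpP activation: 10 microg/mL B. subtilis ClpP at pH 8 with the FRET-FV decapeptide, read at 430 nm after 320 nm excitation. The 20-min minus 0-min signal was scaled between DMSO/no-enzyme wells and ADEP (5.8 microM final).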
* hit, by the source's call; ? = inconclusive. Potency is the fitted concentration of half-maximal effect.

SMILES | ClpP mod
CC(=O)c1cccc(NC(=O)c2nc(-c3ccccc3)n(-c3ccccc3)n2)c1 | -3.2%
CN(C1CCCCC1)S(=O)(=O)c1ccc2c(c1)c(=O)c(C(=O)N1CCN(c3ccc(F)cc3)CC1)cn2C | -4.0%
Cc1cc(Br)c2nc(-c3ccccc3)c(Cc3cccc(Cl)c3)n2c1 | -1.6%
O=C(CCC1N=C2c3ccccc3N=C(SCc3cccc(Cl)c3)N2C1=O)N1CCN(c2ccccc2)CC1 (centres undefined) | 1.0%
Cc1cc(C)c(/C=C/c2onc(C)c2S(=O)(=O)N2CCC(C(=O)NCCc3ccccc3)CC2)c(C)c1 | -5.4%
OCCNc1ncnc2oc(-c3ccco3)c(-c3ccco3)c12 | 4.8%
COc1ccc(OC)c(-c2noc(CSc3nnc(-c4ccccc4)n3-c3ccccc3)n2)c1 | -4.4%
CCN(Cc1ccccc1)C(=O)CN1C(=O)COc2ccc(S(=O)(=O)N(CC)CC)cc21 | -10.9%
Cc1ccc(NC(=O)C2CCCN2S(=O)(=O)c2ccc3c(c2)CCCC(=O)N3)cc1C (centres undefined) | -0.6%
O=C(O)CSC1=NS(=O)(=O)c2ccccc21 | -6.2%
COc1ccc(OC)c(NC(=O)c2c(N3CCCC3=O)c3cc(OC)ccc3n2C)c1 | -13.8%
CCOC(=O)c1cc(-c2ccc(OC)cc2)nn1Cc1ccccc1 | -14.7%
CC(=O)c1cccc(Nc2ccc3cc(S(=O)(=O)N4CCC(C)CC4)ccc3n2)c1 | ?
Cc1ccc(NC(=O)N2CCN(c3cc(-c4noc(C)n4)ccc3C)CC2)c(F)c1 | -0.5%
COc1ccc(C2C(=O)N(C3CCCCCC3)CC(=O)N2Cc2ccc(C)cc2)cc1OC (centres undefined) | 0.0%
COc1ccc(S(=O)(=O)N2CCC[C@H]2C(=O)N2CCC[C@H]2C(=O)NCc2ccccc2)cc1C | 0.8%
O=C(Cc1csc2ccccc12)NCc1ccc(F)cc1 | 0.8%
CCOC(=O)c1ccc2c(c1)sc1nc(-c3ccc(OCC)cc3)cn12 | ?
O=C(CSc1nnc2[nH]c(=O)cc(-c3ccccc3)n12)Nc1cc(C(F)(F)F)ccc1Cl | ?
CCC(C)Nc1oc(-c2ccc(COc3ccc(Cl)cc3)o2)nc1C#N (centres undefined) | 28.2µM*
COC(=O)c1c(SCC(=O)Nc2ccccc2C(F)(F)F)[nH]c2ccc(Cl)cc2c1=O | -14.0%
Cc1cc(C)cc(NC(=O)CSc2nncn3c2cc2occc23)c1 | -3.8%
C=CCC[C@@H](CCCCC)OC(=O)/C=C/[C@@H](O)[C@H](O)C[C@@H](O)CC=C | 0.1%
Cn1cc(C(=O)O)c(=O)c2cc(S(=O)(=O)N3CCCCC3)ccc21 | -17.2%
COc1ccc(OC)c(CCNC(=O)CCCn2c(=O)c3cccn3c3cccnc32)c1 | -10.2%
Cc1cccc(Cn2c(=O)n(CC3CCC(C(=O)N4CCOCC4)CC3)c(=O)c3sccc32)c1 (centres undefined) | -1.0%
CCOc1ccccc1NC(=O)COC(=O)c1cn(CC)c2nc(C)ccc2c1=O | 0.3%
COc1ccc(CN2CC[C@H]3C=CC[C@@H](C(=O)NC4CCCCC4)[C@H]3C2=O)cc1OC | 0.7%
Cc1ccc(C(=O)Nc2ccccc2)cc1S(=O)(=O)Nc1ccccc1 | 1.2%
COc1cccc(Cn2c(SCC(=O)N(C)c3ccccc3)nc3ccccc32)c1 | -4.9%
COc1ccc(-c2nc3ccccc3o2)cc1NC(=O)C(C)(C)Oc1ccc(Br)cc1 | -33.1%
O=C(COc1ccc(Cl)cc1)N(Cc1ccco1)c1ccccn1 | -0.8%
Cc1ccc(NC(=O)c2sc(-n3nc(C)c(Cc4ccc5c(c4)OCO5)c3C)nc2C)cc1C | -4.7%
Cc1ccc(NC(=O)CSc2nc3ccccc3c3nc(CCc4c(C)n[nH]c4C)nn23)c(C)c1 | -5.2%
COc1ccc(-c2nc3c(Cl)cc(C(F)(F)F)cn3c2Cc2ccccc2C(F)(F)F)cc1OC | -20.3%
O=C(CSc1nc2c([nH]c3ccccc32)c(=O)n1-c1cccc(Cl)c1)N1CCc2ccccc21 | -11.5%
O=C(Nc1nnc(S(=O)(=O)N2CCc3ccccc32)s1)c1cccc(Cl)c1 | -4.0%
Cc1ccccc1NC(=O)CSc1nc(-c2ccccc2)cn1-c1ccccc1F | -2.4%
COc1cccc(C(=O)Nc2ccc3nc(N4CCC(C)CC4)cc(C)c3c2)c1 | ?
O=C(c1ccccc1Cl)N(Cc1ccco1)c1ccccn1 | -1.0%
Cc1cccc(CC(=O)Nc2cccc(-c3nc4cccnc4s3)c2)c1 | 20µM*
CC1=Nc2ccccc2/C1=C(/C)c1c(C)[nH]c2ccccc12 | -0.9%
CCC(NC(=O)Nc1cc(OC)ccc1OC)c1c(-n2cccc2)sc2c1CCN(CC)C2 (centres undefined) | -3.7%
Cc1nn(C)c2c1c(C(F)(F)F)cc(=O)n2CC(=O)NCc1ccccc1Cl | 71.5%
CCCNC(=O)C1CCC(Cn2c(=O)c3sccc3n(CC(=O)NCc3cccc(OC)c3OC)c2=O)CC1 (centres undefined) | -2.6%
CCOC(=O)CNC(=O)c1cc2c(=O)oc3ccccc3c2s1 | -3.8%
COc1ccccc1CNC(=O)Cn1c(=O)nc(-c2ccccc2F)c2cc(Cl)ccc21 | -2.2%
CN(C)c1ccc(/C=C/c2cccc3cc4ccccc4nc23)cc1 | 56.0%
CCOc1ccc(NC(=O)Cn2cc(C(=O)c3ccc(CC)cc3)c(=O)c3cc(C)ccc32)cc1 | 0.4%
COc1ccc(-c2nc3ccc(C(=O)NCc4ccccc4)cc3nc2-c2ccc(OC)cc2)cc1 | ?
CCc1ccc(Sc2cc(C(=O)NCc3ccccc3OC)c3ccccc3n2)cc1 | ?
Cc1ccc(NC(=O)CN2C(=O)C3(SCC(=O)N3c3cccc(Cl)c3)c3ccccc32)cc1C (centres undefined) | -2.8%
COC(=O)c1ccc2nc(-c3cccc(Cl)c3)c(Cc3cccc(Cl)c3)n2c1 | ?
CCc1ccc(OCC(=O)Nc2cc(-c3ccc(C)cc3)no2)cc1 | 1.1%
CCC(C)n1c(=N)c(S(=O)(=O)c2ccc(C)cc2)cc2c(=O)n3cc(C)ccc3nc21 (centres undefined) | -5.5%
CC(=O)c1ccc(N2CCN(S(=O)(=O)c3ccc(-c4cc(C(F)(F)F)on4)s3)CC2)cc1 | 0.6%
Cc1ncnc2nc[nH]c12 | -0.2%
COc1ccc(-n2c(=O)c3c4c(sc3n(Cc3ccccc3C)c2=O)CCCC4)c(OC)c1 | ?
Cc1cc(C)c(NC(=O)COCc2cc(-c3cccs3)on2)c(C)c1 | 1.5%
Cc1nnc(N2C(=O)c3oc4ccccc4c(=O)c3C2c2ccc(C(C)(C)C)cc2)s1 (centres undefined) | -2.4%
More entries
SMILES | ClpP mod
COc1ccc(-c2ccc(CCC(=O)O)n2CC(=O)Nc2cccc(Cl)c2C)cc1 | -6.1%
O=C(CSc1nc(=O)[nH]c2c1CCCC2)NCc1ccccc1Cl | -1.0%
Cc1cc(NC(=O)c2cc(-c3ccc(Cl)cc3)on2)nn1Cc1ccc(Cl)cc1 | 2.4%
COc1ccc(-c2cn3c(n2)sc2cc(C(=O)NCCC4=CCCCC4)ccc23)cc1 | 4.3%
O=C(COc1ccccc1-c1nc(-c2ccccc2)no1)Nc1ccccc1[N+](=O)[O-] | 0.8%
Cc1ccc(CSc2nnc(-n3c(=O)c(C#N)cc4c(=O)n5cccc(C)c5nc43)s2)cc1 | -23.0%
Cc1ccc(NC(=O)Cn2c(=O)oc3cc(S(=O)(=O)N4CCCCC4)ccc32)c(C)c1 | 1.1%
O=C(NCc1ccccc1Cl)c1ccccc1NC(=O)c1nsc2ccccc12 | 97.6%
COC(=O)c1sc2cccc(F)c2c1S(=O)(=O)Nc1ccc(C)cc1Cl | -1.3%
CC1CCN(S(=O)(=O)c2ccc3c(c2)N(CC(=O)NCc2ccccc2Cl)C(=O)CS3)CC1 | -0.9%
COc1cccc(N2CC(NC(=O)c3ccc(S(=O)(=O)N4CCOCC4)cc3)CC2=O)c1 (centres undefined) | 0.8%
CN(CC(=O)Nc1cccc(F)c1)S(=O)(=O)c1ccc2c(c1)n(C)c(=O)c(=O)n2C | -7.3%
COc1ccc(C)cc1NC(=O)NC(C)c1c(-n2cccc2)sc(C)c1C (centres undefined) | -8.6%
COC(=O)c1sccc1S(=O)(=O)N(CC(=O)NCc1ccc(C)cc1)c1ccc(C)c(C)c1 | 0.0%
NC(=O)Cn1c(=O)n(CCCCCC(=O)NCc2ccccc2)c(=O)c2sccc21 | 1.4%
COC(=O)c1ccc(CSc2nc3c([nH]c4ccccc43)c(=O)n2-c2cccc(OC)c2)o1 | -13.2%
Cc1ccc(-c2c(C(=O)N3CCN(c4cccc(C)c4)C(C)C3)oc(=O)c3ccccc23)cc1 (centres undefined) | -6.2%
Cc1cccc(C(=O)N2CCc3cc(CNC(=O)COc4ccc(Cl)cc4)ccc32)c1 | -18.3%
Cc1cn2c(=O)cc(COc3cccc(NC(=O)c4cccc(F)c4)c3)nc2s1 | -3.3%
CCOc1ccc(N(CC)S(=O)(=O)N2CCCC(C(=O)Nc3ccc(OC)c(OC)c3)C2)cc1 (centres undefined) | -0.5%
COc1ccc(OC)c2sc(N3CCN(C(=O)C4COc5ccccc5O4)CC3)nc12 (centres undefined) | -0.6%
Cc1cc2oc(C(=O)N(Cc3ccccc3F)C3CCS(=O)(=O)C3)c(C)c2cc1Cl (centres undefined) | -0.8%
CCN1C(=O)C(O)(c2c(C)[nH]c3ccccc23)c2ccccc21 (centres undefined) | 1.3%
CCN(CC)CCCNC(=O)c1sc2nc3n(c(=O)c2c1C)CCCCC3 | -1.0%
O=c1c2cc3c(cc2n(Cc2cccc(Cl)c2)c(=O)n1Cc1nc(-c2ccccc2)no1)OCO3 | ?
Cn1cc(S(=O)(=O)N2CCOCC2)cc1C(=O)Nc1ccc(Cl)c(C(F)(F)F)c1 | -1.3%
COc1cccc(CNC(=O)c2oc3ccc4c(c3c2C)C(=O)CC(C)(C)O4)c1OC | 4.5%
COc1cc(NS(=O)(=O)c2ccc3c(c2)CC(=O)N3)cc(OC)c1OC | -3.1%
CCCCOc1ccc(CNC(=O)c2cnc3sc(N4CCCCCC4)nn3c2=O)cc1 | -3.6%
Cc1cc(C)cc(NC(=O)Cn2c(C(F)(F)F)nc3ccccc32)c1 | 0.7%
Cc1cccc(C)c1-n1nnnc1C(c1ccnc2ccccc12)N1CCN(CCN(C)C)CC1 (centres undefined) | -0.4%
Cc1ccc(C)c(C(Nc2ccccc2)c2ccc3ccc(C)nc3c2O)c1 (centres undefined) | -4.8%
CCn1c(=O)cc(OCC(=O)Nc2cc(OC)c(OC)c(OC)c2)c2ccccc21 | -9.9%
COC(=O)c1sccc1S(=O)(=O)N(CC(=O)Nc1cc(F)ccc1F)c1ccc(C)c(C)c1 | 0.0%
Cc1c(C(=O)Nc2cc(F)ccc2F)sc2nc(-c3ccc(F)cc3)cn12 | 0.9%
N#Cc1ccc(NC(=O)c2cc(-c3cccc(Cl)c3)on2)cc1 | -8.5%
COc1cccc(NC(=O)c2c(C(=O)Nc3ccccc3)sc3nc(C)cc(=O)n23)c1 | 2.1%
COc1ccc2oc(=O)cc(CN3CCN(C(=O)c4ccccc4)CC3)c2c1 | -18.4%
COc1ccc(Cn2cc(S(=O)(=O)c3ccc(Cl)cc3)c(=O)c3cc4c(cc32)OCO4)cc1 | -10.8%
Cc1ccc(NC(=O)Cn2nc(C(F)(F)F)c3c2CCCC3)cc1C | -1.9%
N#Cc1c[nH]n2c(NC3CCCCC3)c(-c3cccc(Cl)c3)nc12 | 2.1%
Cc1ccc(NC(=O)c2cc(S(=O)(=O)N3CCCCCC3)ccc2F)cc1F | 0.4%
Cc1ccc2nc(-c3ccc(C)o3)c(Nc3ccc4c(c3)OCCO4)n2c1 | 4.4%
O=C(Cn1ncc2c3ccccc3n(Cc3ccccc3)c2c1=O)NCc1ccccc1 | -22.5%
CO[C@@H]1CN(C)C(=O)c2cc(NS(=O)(=O)c3ccc(C)cc3)ccc2OC[C@H](C)N(Cc2nccs2)C[C@H]1C | 2.2%
Cc1cc(C)n(-c2nc(C)c(C)c(=O)n2CC(=O)Nc2ccc(OC(F)(F)F)cc2)n1 | 2.7%

Quoted at random: 4 records from the list.
SMILES | ClpP mod
Cc1cc(C)cc(NC(=O)CSc2nncn3c2cc2occc23)c1 | -3.8%
CCOC(=O)c1ccc2c(c1)sc1nc(-c3ccc(OCC)cc3)cn12 | ?
COc1ccc2oc(=O)cc(CN3CCN(C(=O)c4ccccc4)CC3)c2c1 | -18.4%
Cc1cc2oc(C(=O)N(Cc3ccccc3F)C3CCS(=O)(=O)C3)c(C)c2cc1Cl (centres undefined) | -0.8%

Of the compounds above, these contain two or more sulfur atoms.
SMILES | ClpP mod
O=C(O)CSC1=NS(=O)(=O)c2ccccc21 | -6.2%
O=C(Nc1nnc(S(=O)(=O)N2CCc3ccccc32)s1)c1cccc(Cl)c1 | -4.0%
CC(=O)c1ccc(N2CCN(S(=O)(=O)c3ccc(-c4cc(C(F)(F)F)on4)s3)CC2)cc1 | 0.6%
Cc1ccc(CSc2nnc(-n3c(=O)c(C#N)cc4c(=O)n5cccc(C)c5nc43)s2)cc1 | -23.0%
COC(=O)c1sc2cccc(F)c2c1S(=O)(=O)Nc1ccc(C)cc1Cl | -1.3%
CC1CCN(S(=O)(=O)c2ccc3c(c2)N(CC(=O)NCc2ccccc2Cl)C(=O)CS3)CC1 | -0.9%
COC(=O)c1sccc1S(=O)(=O)N(CC(=O)NCc1ccc(C)cc1)c1ccc(C)c(C)c1 | 0.0%
COC(=O)c1sccc1S(=O)(=O)N(CC(=O)Nc1cc(F)ccc1F)c1ccc(C)c(C)c1 | 0.0%
CO[C@@H]1CN(C)C(=O)c2cc(NS(=O)(=O)c3ccc(C)cc3)ccc2OC[C@H](C)N(Cc2nccs2)C[C@H]1C | 2.2%

An excerpt; the hit share may differ from the screen's.
